High-throughput results: PubChem, National Center for Advancing Translational Sciences (NCATS)
D2 agonist = Beta-Arrestin HTS for Positive Allosteric Modulators of the Human D2 Dopamine Receptor: Agonists. D(2) dopamine receptor (Homo sapiens), P14416. DiscoveRx PathHunter D2 beta-arrestin, luminescence, 90 min; 100% = 57 uM dopamine signal. activation, % (no concentration beside the values). 0.084% of 360,000 active. AID 624465, 2012; in the data active = activation above about 40%; inconclusive = about 15% to 40%; inactive = below about 15%; note: compound concentration not given in the record; the text of the record calls up to 30% inactive
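DiscoveRx PathHunter D2 beta-arrestin cells (2,100/well) attached overnight, then compound-stimulated 90 min at 37 C in HBSS/10 mM HEPES/0.1% Tween-20 buffer; beta-galactosidase complementation read by luminescence after 1 h at ambient temperature. Dopamine 57 uM final (EC100) as control.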
D2 PAM = Beta-Arrestin HTS for Positive Allosteric Modulators of the Human D2 Dopamine Receptor: Potentiators; DiscoveRx D2 beta-arrestin cells, luminescence, 90 min; 100% = 57 uM dopamine signal; potentiation, % (test concentration not listed); 0.23% of 360,000 active; AID 624464, 2012; active = potentiation of 50% or more; inconclusive = 30% to 50%; inactive = 30% or less;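 note: compound concentration not given in the record; tested on top of an EC20 dose of dopamine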
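PathHunter D2 cells, attached overnight at 37 deg C, received compound in DMSO plus dopamine at EC20 (50 nM final) for 90 min at 37 deg C. Beta-arrestin recruitment was read as luminescence after 1 h with detection reagent at ambient temperature.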
CtBP-E1A blk = qHTS Assay for Inhibitors of the CtBP/E1A Interaction; AlphaScreen GST-E1A/His-CtBP binding, 1536-well; stronger effect = lower value; control for the full effect not named in the record; activity change, % (no concentration beside the values); 0.49% of 340,000 active; CtBP / adenovirus E1A interaction (AlphaScreen); in the data active means activity change below about -65%; inconclusive means about -30% to -65%; inactive means above about -30%; note: % is set by controls: 0 for no effect and ±100 for the full control effect; compound concentration not given in the record
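Protein mix (5X: 125 nM each GST-E1A, His-CtBP) was incubated with pinned compound 2 h at 37 deg C in dark, in 50 mM Tris pH 8.0 buffer with 300 mM NaCl. Glutathione donor and nickel acceptor beads followed; AlphaScreen signal read after 1 h.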
Six1-Eya2 inh = qHTS Assay for Inhibitors of the Six1/Eya2 Interaction. 0.56% of 360,000 active. activity change, % (test concentration not listed). AlphaScreen GST-Six1/His-Eya2 binding, biochemical; stronger effect = lower value; control for the full effect not named in the record. AID 651725, 2012; in the data active = activity change below about -65%; inconclusive = about -30% to -65%; inactive = above about -30%; note: % is set by controls: 0 for no effect and ±100 for the full control effect; compound concentration not given in the record
Target sequence (O00167 whole entry, looked up): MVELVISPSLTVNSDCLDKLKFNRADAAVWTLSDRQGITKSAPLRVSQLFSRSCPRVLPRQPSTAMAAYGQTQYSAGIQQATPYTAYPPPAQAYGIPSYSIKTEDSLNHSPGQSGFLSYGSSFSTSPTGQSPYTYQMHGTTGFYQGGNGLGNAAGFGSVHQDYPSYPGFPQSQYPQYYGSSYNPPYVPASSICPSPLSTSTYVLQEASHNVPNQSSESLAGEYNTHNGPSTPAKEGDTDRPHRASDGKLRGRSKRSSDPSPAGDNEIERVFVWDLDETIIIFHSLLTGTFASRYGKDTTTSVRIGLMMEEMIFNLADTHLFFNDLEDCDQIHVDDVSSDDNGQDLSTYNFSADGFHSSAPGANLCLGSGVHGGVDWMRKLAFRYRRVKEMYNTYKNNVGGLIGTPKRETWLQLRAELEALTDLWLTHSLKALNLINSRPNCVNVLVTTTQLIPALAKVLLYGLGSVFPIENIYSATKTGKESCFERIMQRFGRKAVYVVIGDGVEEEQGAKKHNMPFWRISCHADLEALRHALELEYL
Target sequence (Q15475 whole entry, looked up): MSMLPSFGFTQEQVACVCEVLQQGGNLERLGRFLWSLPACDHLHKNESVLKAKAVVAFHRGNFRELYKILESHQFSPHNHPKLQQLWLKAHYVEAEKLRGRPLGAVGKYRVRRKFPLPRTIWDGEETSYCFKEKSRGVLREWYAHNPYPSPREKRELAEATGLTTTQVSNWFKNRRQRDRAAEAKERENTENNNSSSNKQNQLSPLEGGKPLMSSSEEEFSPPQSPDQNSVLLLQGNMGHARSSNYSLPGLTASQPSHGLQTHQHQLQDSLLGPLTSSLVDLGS
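Six1/Eya2 binding was read as AlphaScreen signal after compounds were pinned into GST-Six1 plus His-tagged Eya2 (5X stock 250/500 nM) in pH 8.0 Tris/NaCl/TCEP buffer, beads added, then incubated 1 h, 37 C, dark.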
TRPML1 agonist = qHTS for Agonists of the Human Mucolipin Transient Receptor Potential 1 (TRPML1) | 0.12% of 410,000 active | Mucolipin-1 (Homo sapiens), Q9GZU1 | activation, % (test concentration not listed) | TRPML1-expressing cells, Ca2+ dye fluorescence, FDSS; host cell line not named in the record; reference of the full effect not given here; in the data active = activation above about 50%; inconclusive = about 30% to 50%; inactive = below about 30%; note: 0% is about no effect; the text of the record puts the active cut at 80%
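Tetracycline-induced TRPML1-DL cells are seeded and incubated overnight before loading with a no-wash Ca2+ dye and quencher. Agonist activity is taken from the 110 s fluorescence read following compound pin-transfer on an FDSS, before EC80 54-4 challenge.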
PINK1 modulator = A Quantitative High throughput Screen to Identify Chemical Modulators of PINK1 Expression; PINK1 immunofluorescence, high-content cytometry, 24 h; Potency, µM (top dose mostly 76.6 µM), for the others: at the top dose activation (PINK1 increase), usual class: activators; 0.2% of 410,000 active; AID 624263, 2012; active = well fitted activation curve with a large enough effect; inconclusive = small, poorly fitted or top-dose-only effect; inactive = flat fitted curve, though single readings scatter; cell line not stated here;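 note: potency is the fitted concentration of half-maximal effect; % of control where 0% means no effect; nearly all actives have a fitted effect of over 65% in size; a mitochondrial uncoupler was the plate control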
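Cells are seeded, rested 12 hours, then given compound at five concentrations or DMSO for 24 hours. After fixation, blocking and antibody staining, PINK1 amount and mitochondrial localization are scored; CCCP serves as control.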
The depositor's hits bear a star; ? = inconclusive; nt = no result given; & = joins results of further samples. Outcome played no part in choosing rows, and some 1.3% of all compounds hit somewhere here.

SMILES	D2 agonist	D2 PAM	CtBP-E1A blk	Six1-Eya2 inh	TRPML1 agonist	PINK1 modulator
COc1cc(C2CC(=O)Oc3c(C(CCN4CCN(c5ccccc5)CC4)c4ccc(N(C)C)cc4)c(OC)cc(OC)c32)cc(OC)c1OC (configuration not stated)	14.7	-14.5	?	?	0.1&-0.5	1.5%
COc1ccc(/C=C/CN2CCCC(C(=O)c3cc(F)ccc3F)C2)cc1 (configuration not stated)	-3.3	-9.7	-15.2	-0.6	0.0	?
CCCn1c(N)c(C(=O)CSc2nnc(N)s2)c(=O)[nH]c1=O	-1.0	-11.6	nt	-2.9	-0.5	-0.2%
CC12COC3(C(=O)NCCc4ccccc4)CC1CCC32C (configuration not stated)	-0.8	2.1	7.1	5.4	-0.5	1.2%
CCN(CC)C(=O)C(=O)c1cccn1-c1ccc(C#N)cc1	-5.5	0.8	nt	15.0	-0.7	2.2%
S=c1[nH]nc(-c2cccnc2)n1Cc1ccccc1	0.3	2.1	5.4	2.1	-0.7	0.5%
CCN1CCN(C(=O)c2cc3cc(F)ccc3[nH]2)CC1	-1.3	-10.8	-12.8	-23.8	0.3	1.3%
O=C(CCN1C(=O)/C(=C/c2ccc(F)cc2)SC1=S)NNC(=O)c1ccncc1	-3.0	-3.8	nt	-1.2	1.2	5.6%
O=C(CSc1nc2c(sc3ccccc32)c(=O)n1CCO)NCc1ccco1	-1.8	4.4	0.7	-1.6	0.1	3.2%
Cc1coc2c1C(=O)C(=O)c1c-2ccc2c(C)cccc12	11.5	12.2	?	?	-0.7	1.7%
C[C@@H](CC#N)CN1CC[C@H](C(C)(C)C)CCC1=O	-1.8	-10.6	4.8	2.4	0.3&-0.1	1.1%
Cc1c(NC(=O)COC(=O)CSc2ccc(C(N)=O)cc2[N+](=O)[O-])c(=O)n(-c2ccccc2)n1C	-3.3	-2.6	-2.7	2.3	0.2	-0.4%
CCOC(=O)Cc1c(C)c2ccc(N(CC)CC)cc2oc1=O	-1.4	-5.2	35.5	43.9	2.1	0.1%
Nc1nonc1-c1noc(CCCN2C(=O)c3ccccc3C2=O)n1	-2.4	20.9	3.2	1.5	-0.5	-0.9%
COc1ccc(CCN(C)C(=O)CN2C(=O)NC3(CCCCCC3)C2=O)cc1OC	2.0	-11.8	-20.2	6.9	0.7	0.2%
Cc1nc(-c2ccccc2)c(-c2ccccc2)[nH]1	-2.4	-16.0	-15.5	-10.1	-0.2	0.0%
CCOC(=O)NC(=O)CSc1ccccn1	0.7	7.0	7.3	5.9	1.9	nt
Clc1ccc(-c2cccc3nccn23)cc1	-5.1	-14.6	0.1	-5.1	-0.3	1.9%
COC(=O)[C@]12CCCCC=C1N(Cc1cccc3ccccc13)C(=O)[C@H](CC(=O)N1CCN(C(=O)c3ccco3)CC1)C2	nt	nt	-4.5	-12.4	-0.5	2.0%
COc1ccccc1C(=O)N(CCN(C)C)c1nc2cc(C)cc(C)c2s1	-1.3	-20.2	-3.4	-27.4	0.0	3.0%
NS(=O)(=O)c1cc2c(cc1Cl)NC(Cc1ccccc1)NS2(=O)=O (configuration not stated)	3.7	-5.1	-2.2	-0.9	2.1	-0.3%
NC(=O)CSc1nc(-c2ccccc2)nc2ccccc12	-3.9	-1.7	10.4	-7.7	1.2	-2.3%
CCC(C)(C)C1CCC2(CC1)NC(=O)N(CC(=O)N(C)Cc1ccc3c(c1)OCCO3)C2=O (configuration not stated)	7.1	0.2	6.7	2.1	1.5	2.1%
c1ccc(-c2nnn(C34CC5CC(CC(C5)C3)C4)n2)cc1	5.2	0.6	22.7	14.3	2.2	5.9%
COC(=O)c1cc(=O)n2c(-c3ccccc3)csc2n1	-0.1	-3.3	-6.2	-0.2	-0.1	-0.6%

Next section, starting with the last two of the part before.
SMILES	D2 agonist	D2 PAM	CtBP-E1A blk	Six1-Eya2 inh	TRPML1 agonist	PINK1 modulator
c1ccc(-c2nnn(C34CC5CC(CC(C5)C3)C4)n2)cc1	5.2	0.6	22.7	14.3	2.2	5.9%
COC(=O)c1cc(=O)n2c(-c3ccccc3)csc2n1	-0.1	-3.3	-6.2	-0.2	-0.1	-0.6%
CCOC(=O)c1sc(-c2ccccc2)nc1C	0.6	1.0	46.9	35.8	1.6	3.6%
O=C(CSc1nncc(=O)[nH]1)NCc1ccccc1	-4.3	-10.4	1.5	2.3	-0.6	-1.7%
Cc1cc(=O)oc2cc(OCC(=O)OCC(=O)Nc3c(C)n(C)n(-c4ccccc4)c3=O)ccc12	-9.2	-1.2	-2.1	21.2	0.3	-0.4%
O=C(CCc1nnc(-c2ccc3c(c2)OCO3)o1)NC(c1ccccn1)C(F)(F)F (configuration not stated)	0.4	-6.5	-24.4	-8.0	-0.5	1.9%
O=C(NCCN1CCN(C(=O)c2cc3ccccc3oc2=O)CC1)c1cc2ccccc2oc1=O	-1.9	-16.1	-7.5	3.1	0.3	-0.3%
CCOC(=O)C1(CCOC)CCN(Cc2ccc3nonc3c2)CC1	-4.3	-23.6	2.0	-1.3	0.8	-1.1%
COc1cc(CC(=O)OCC(=O)Nc2ccccc2C#N)cc(OC)c1OC	-2.5	1.7	-13.3	-0.7	0.7	1.2%
Clc1ccc(CN(CC2CCCO2)C(c2cccs2)c2nnnn2C2CCCC2)cc1 (configuration not stated)	-2.5	-16.0	8.4	0.4	53.8*	6.9%
O=C(c1ccc(N2CCCCC2)c([N+](=O)[O-])c1)N1CCOCC1	0.0	-3.6	-9.5	1.3	-1.0	-4.8%
COc1ccc(CNC(=O)[C@H](C)N2C(=O)N3CCc4c([nH]c5ccc(OC)cc45)[C@@]3(C)C2=O)cc1	-1.9	-13.2	-2.1	-3.7	nt	9.4%
CCCC(C)Sc1nc2c([nH]1)c(=S)n(C)c(=O)n2C (configuration not stated)	-0.2	-19.6	-8.9	0.8	2.5	9.9%
CCOC(=O)CSc1nnc(CNc2ccc(Cl)cc2)n1-c1ccccc1	0.7	-8.9	-10.3	-8.9	1.1	nt
O=C(NC1CCCCC1)C(c1cccnc1)N(C(=O)c1csnn1)c1ccccc1 (configuration not stated)	-2.7	-6.4	0.9	10.3	0.4	-2.4%
CC1Cc2ccccc2N1C(=O)CSc1nnnn1C(C)C (configuration not stated)	-2.9	-5.8	3.7	5.8	0.2	0.2%
COc1ccc(OC)c(NC(=S)N2c3ccccc3CC2C)c1 (configuration not stated)	-1.8	-10.7	-11.7	-16.5	1.6	0.9%
CCN(CC)CCCC(C)n1c2nc(=O)[nH]c(=O)c-2nc2cc(Cl)ccc21 (configuration not stated)	?	80.2*	-2.9	1.5	82.9*	-1.4%
COc1ccc(OCCOc2ccc(S(=O)(=O)N3CCCC3)cc2C(N)=O)cc1	-0.4	2.5	4.5	-24.9	1.8	1.2%
CN1C(=O)N(CC(=O)N2CCN(S(=O)(=O)c3ccc4c(c3)CCC4)CC2)C(=O)C12CCCCC2	-2.2	-2.2	5.5	-2.3	0.4	3.4%
CC(=O)NS(=O)(=O)c1ccc(NC(=O)c2ccc3c(c2)C(=O)N(CCC(C)C)C3=O)cc1	-2.1	5.9	1.5	-3.6	0.0	1.0%
COC(=O)[C@H]1C[C@H](OC(=O)NCc2ccc(OC)c(OC)c2)[C@@]2(O)CN(S(=O)(=O)c3ccc(C)cc3)CC2[C@H]1C(=O)OC (some centres not stated)	-7.3	5.4	0.7	-0.8	-0.5	0.9%
O=S(OCCN1CCCC1)C(c1ccccc1)c1ccccc1 (configuration not stated)	-3.2	-44.1	-5.6	-8.8	0.8	0.3%
O=[N+]([O-])c1cccnc1Sc1ccccc1Cl	8.0	0.1	-3.9	-20.1	3.0	1.4%
C#Cc1ccc(CN2CCN(CCCc3ccccc3)C(CCO)C2)cc1 (configuration not stated)	1.2	-25.9	-15.5	-2.5	-0.1	1.5%
CCc1ccc2[nH]c(=O)c(C(c3nnnn3CC3CCCO3)N3CCN4CCCC4C3)cc2c1 (configuration not stated)	-1.6	6.7	-0.9	-0.3	0.3	nt
Cc1cnc(C(=O)OC(C)C(=O)Nc2ccccc2-c2ccccc2)cn1 (configuration not stated)	-4.6	-4.7	-3.9	8.4	-0.2	0.0%
(cont.)
SMILES	D2 agonist	D2 PAM	CtBP-E1A blk	Six1-Eya2 inh	TRPML1 agonist	PINK1 modulator
CC(C)COC(=O)OCN1C(=O)CN(CCN2CC(=O)N(COC(=O)OCC(C)C)C(=O)C2)CC1=O	-0.8	-9.3	1.0	0.4	-0.1	-0.4%
COc1ccc(NC(=O)CCCC2CCCCC2)cc1S(=O)(=O)N1CCCCC1	-0.6	-16.7	0.5	11.1	2.1	0.6%
CC(C)(C)NC(=O)c1ccccc1-c1nc2ccccc2s1	-3.1	-3.5	-1.9	-2.2	-0.3	1.5%
Cc1ccc(S(=O)(=O)c2nc(S(C)(=O)=O)sc2N2CC(C)OC(C)C2)cc1 (configuration not stated)	-6.0	14.2	0.4	5.7	0.1	1.7%
COc1c2c(c(CCC(=O)O)c3c1C=CC(C)(C)O3)OC(C)(C)C=C2	-2.9	-4.8	5.5	-4.2	nt	-0.2%
COc1cccc(-c2nnc(NC(=O)C3CCCCC3)o2)c1	1.3	-2.3	4.5	-5.8	-0.5	2.4%
O=C(CSc1nc2ccccc2[nH]1)c1ccc(Cl)s1	?	-17.3	1.5	-2.5	-0.4	2.7%
COc1ccc(C(=O)NNS(=O)(=O)c2ccc(OC)cc2)cc1	5.7	1.6	9.1	7.3	-0.6	0.5%
Cc1cc(Nc2cccc(Cl)c2)nc(NCc2ccccc2)n1	0.9	-4.5	-19.2	1.3	0.3	-0.6%
CC(C)C1Cc2c(sc3c2c(=O)n(Cc2ccccc2)c2nncn32)CO1 (configuration not stated)	-4.0	-6.1	3.9	-0.5	2.0	4.2%
O=C(NCCc1ccccc1)/C(=C\c1cccc([N+](=O)[O-])c1)NC(=O)c1ccco1	-2.4	-5.6	4.3	-1.9	0.9	3.5%
O=C(c1ccc2oc(Cc3ccc(Cl)cc3)nc2c1)N1CC[C@H](O)C1	0.2	-6.5	20.7	24.7	-1.0	0.0%
Cc1ccc(-n2ncc3c(N4CCCC4)ncnc32)c(C)c1	-2.9	-12.6	2.5	-1.0	-0.1	nt
COc1ccc(Cl)cc1C(=O)Nc1nc2ccccc2[nH]1	-5.9	-7.7	-22.8	-9.7	1.7	9.3%
Cc1ccc(C(=O)NC2CCN(C(=O)NCc3ccccc3)CC2)cc1	-6.4	-10.4	13.8	3.5	-0.5	2.8%
C[C@H](NC(=O)OCc1ccccc1)C(=O)N[C@@H](Cc1c[nH]c2ccccc12)C(=O)O	-1.7	-12.3	4.5	1.4	-0.2	0.2%
Cc1ccc(S(=O)(=O)C2(C(=O)O)CCCC2)cc1C	0.3	-3.8	9.7	9.5	0.3	nt
